Assay outcomes deposited in PubChem by Fisher Drug Discovery Resource Center.
NPYLR7 ag – activates Aedes aegypti NPYLR7 receptor; HEK293T NPYLR7/Galpha15, GCaMP6s calcium fluorescence; activation, % at 10 µM; hit rate 0.15% among 270,000; in the data active = activation above about 40%;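 note: 0% = vehicle and 100% = reference agonist at the receptor; some compounds past the cut are filed as inactive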
NPYLR7 ag max-min – further read-out of NPYLR7 ag, marked with its call; activation, %; measured here: Max-Min RFU normalised activation; some inactives read as strong as hits;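 span of the calcium signal over five minutes; 0% = vehicle and 100% = native peptide agonist; compound fluorescence can raise it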
An asterisk follows results filed as active; & = joins results of further samples. A portion of the library; rates above refer to the full screens.

SMILES	NPYLR7 ag	NPYLR7 ag max-min
CN(C)CCNC(=O)[C@@]1(OCc2ccc(F)cc2)CC(OCc2cccc(C(F)(F)F)c2)[C@@H]2OC(C)(C)O[C@@H]2C1 (stereo partly drawn)	30	27
C/C=C(\C)C(=O)N1CCc2cc(OC)c(OC)cc2C1c1ccccc1 (stereo not drawn)	14	3
CC(c1ccccc1)c1ccc(O)cc1 (stereo not drawn)	9	7
CCc1ccc[n+](-c2nc3ccccc3nc2C(C#N)C#N)c1	16	17
CCOC(=O)c1c(NC(=O)c2cc(C)oc2C)c(-c2cccc(F)c2)cn1C	12	23
CN(C)C=Nn1cnc2ccccc2c1=O	1	-2
COc1ccccc1CNC(=O)c1nnn(Cc2ccc(Cl)cc2)c1N	-1	6
COCC1CCCN(C(=O)c2ccc(-c3ccc(-c4ccn[nH]4)cc3)nc2)C1 (stereo not drawn)	-5	-5
COc1nc(-c2ccccc2F)n(-c2cccc(NC(=O)c3cccc([N+](=O)[O-])c3)c2)n1	13	24
Cc1cccc2c(N=Nc3cccc4cccnc34)c(O)[nH]c12	0	8
CNc1nc2cnc(Nc3cccc(C(F)(F)F)c3)cc2n1CC1CC1	-10	-11
CC(C)c1ccc(C2C(=C(O)c3ccccc3)C(=O)C(=O)N2CCN(C)C)cc1 (stereo not drawn)	-5	-10
COc1ccc(C(c2ccccc2C)N(C)C(=O)C2CCN(C(=O)c3ccc4c(c3)OCO4)CC2)cn1 (stereo not drawn)	-3	-13
O=C(O)c1ccc(NC2=CC(=O)N(CCO)C2=O)cc1	3	5
C=CCONC(=O)c1ccc(OC(CCN(C)C)c2ccc(OC)cc2)cc1 (stereo not drawn)	-1	16
CC1Cc2ccccc2N1Cc1cc(=O)c(OCC(=O)Nc2ccccc2)co1 (stereo not drawn)	10	8
COc1ccc(C)cc1NC(=O)NCc1cnn2ccccc12	6	7
FC(F)(F)c1cccc(-c2noc(/C=C/c3ccc(Br)cc3)n2)c1	-6	-9
O=C(CSc1nc(Cl)cc(N2CCN(C(=O)C3CC3)CC2)n1)NCCC(c1ccccc1)c1ccccc1	7	16
COC(=O)CCN(C(=O)c1ccc(Cl)c([N+](=O)[O-])c1)c1ccccn1	-3	-5
Cc1cccc(NC(=O)c2cc(-c3ccccc3)nc3c(C)cccc23)c1	-7	-12
COc1cc(-c2nn(-c3ccccc3)c(OC(C)=O)c2-c2ccc(NC(=O)c3ccc(Cl)cc3)cc2)cc(OC)c1OC	-1	13
CC(C)CSc1nnc(SCC(=O)NCCOc2ccccc2)s1	-5	-7
CCc1nnc(NC(=O)c2ccc(CN3CCCC3)cc2)s1	3	1
COC(=O)CN1CCN(CC(=O)c2c(N)n(C)c(=O)n(C)c2=O)CC1	-2	-3
O=C(c1cnn(-c2ccccc2)c1C(F)(F)F)N1CCOCC1	-1	7
COc1cc(Cl)c(NC(=O)Cn2cnc3scc(-c4cccs4)c3c2=O)cc1OC	5	2
N#CCN1CCC(CNC(=O)Nc2nc(-c3cccnc3)cs2)CC1	5	1
COc1cc(CN2CCCC(CNC(=O)c3cc(C)on3)C2)ccc1F (stereo not drawn)	19&11	8&2
CCN(Cc1ccccc1)Cc1nc(C(c2ccccc2)c2ccccc2)no1	-1	-5
Cc1cccc(C2c3cccn3CCCN2Cc2cccnc2)c1 (stereo not drawn)	5	6
CCC(CC)NC(=O)N1CCn2cccc2C1c1ccccc1F (stereo not drawn)	6	3
O=C(c1ccc(Cl)nc1)N1CCC(c2cn(Cc3cccc(F)c3)c3ccccc23)CC1	2	4
CCC(C(=O)Nc1cc(C)nn1-c1ncnc2c1cnn2-c1ccccc1)c1ccccc1 (stereo not drawn)	3	3
COC(=O)C1(C(F)(F)F)N=C(N2CCCC2)OC(N2CCCC2)=N1	-1	-3
Cn1ncc2c(N3CCCN(C(=O)c4ccco4)CC3)nc(C(C)(C)C)nc21	2	1
O=c1c2cnc(N3CCOCC3)nc2ccn1Cc1cccnc1	11	12
CN(C(=O)CSc1nc2c(c(=O)[nH]1)CCC2)C1CCCCC1	1	1
C=CCN1C[C@@H]2C[C@@H](C(=O)NC)N(C(=O)CCc3ccccc3)c3cccc(c32)S1(=O)=O	3	12
COc1cc(C)c(CSc2ccc(S(=O)(=O)N3CCCCCC3)cc2[N+](=O)[O-])cc1OC	-6	-12
O=C(CSc1nc2[nH]ncc2c(=O)[nH]1)Nc1ccc(Cl)cc1	-15	-8
CC1(C)OC(=O)N(CCCCCC(=O)O)C1(C)O (stereo not drawn)	9	4
Cc1nnc(NC(=O)CSc2nc3c([nH]c4ccccc43)c(=O)n2-c2ccc(F)cc2)s1	1	13
CC(=O)N[C@@H]1C[C@H](CC(C)C)O[C@H](c2c(C)nc3ccc(Cl)cn23)C1	0	-5
CSCCC(C)NCc1noc(-c2c(F)cccc2F)n1 (stereo not drawn)	1	-3
CCN(CC(=O)Nc1cc(-c2ccccc2)nn1-c1ccc(OC)cc1)C(=O)c1cc(C(F)(F)F)cc(C(F)(F)F)c1	17	24
O=C(NCc1nnc2n1CCC2)C1CC1c1cccc(F)c1 (stereo not drawn)	-24	-25
O=C(NC1CCN(c2ccccc2C(=O)N2CCN(C3CCCCCC3)CC2)CC1)c1ccccc1F	6	23
O=C(O)c1cc(=O)c2ccccc2[nH]1	-14&3	-21&-10
O=C(Cc1ccc(Cl)cc1)NNC(=O)c1cccn(Cc2ccc(F)cc2)c1=O	-12	-19
O=c1c(N=Nc2ccc(N=Nc3ccccc3)cc2)c(-c2ccccc2)[nH]n1-c1ccccc1	-1	-4
COc1ccc(-n2c(C)nnc2SCc2ccc(C(=O)Nc3ccc(C(C)C)cc3)cc2)cc1	17	20
Cc1cc(C)n(-c2ccccc2NC(=O)N(C)CC2COc3ccccc3O2)n1 (stereo not drawn)	-1	-2
CCNC(=O)C1CCN(Cc2cc3cc(OC)c(OC)cc3[nH]c2=O)C1 (stereo not drawn)	23	19
CC(C)C(NS(=O)(=O)c1ccccc1)C(=O)N1CCN(c2cccc(Cl)c2)CC1 (stereo not drawn)	-17	-16
Cn1c(=O)n(Cc2ccccc2Cl)c(=O)c2c1nc1n2CCN1c1ccccc1	3	0
COc1ccc(C2CC(c3ccc(OC)c(OC)c3)=NN2C(=O)CN2CCCCC2)c(OC)c1 (stereo not drawn)	0	8
CCn1cncc1CNc1nc(-c2ccncc2)nc2c1CCNC2	6	9
CC1(C)Cc2cccc(CNCC(C)(C)N3CCS(=O)CC3)c2O1	-3	-4
Cc1ccc(NC2CCCN(C(=O)c3ccccc3-c3ncn[nH]3)C2)cc1C (stereo not drawn)	1	-4

The list goes on.
SMILES	NPYLR7 ag	NPYLR7 ag max-min
CC(=O)NC(=Nc1nc(C)c2cc(C)cc(C)c2n1)NC(C)=O	-5	-10
CC1=C(C(=O)OC(C)C)C(c2ccccc2[N+](=O)[O-])NC(=O)N1C (stereo not drawn)	0	-4
CC(C)N(CC1CC1)C(=O)c1ccccc1N1CCC(=O)NC1=O	11	7
COc1cc2c(cc1OC)C1CN(C(=O)C(=O)c3c[nH]c4ccccc34)CC(=O)N1CC2 (stereo not drawn)	15	20
Cc1nc(CCN)cc(N2CC3C[C@@H]4CC2C[C@H](C3)C4)n1	-1	-1
CCOC(=O)c1nn(CCc2ccc(OC)cc2)c2c1CN(C(=O)c1cn3cc(C)ccc3n1)CC2	-9	-13
COc1ccc(NC(C)=O)cc1NCCOc1ccc(C(C)C)c(C)c1	7	5
c1ccc(CC2(Cc3ccccc3)NCCc3[nH]cnc32)cc1	11	7
CCCCn1c(N2CCN(Cc3ccccc3)CC2)nc2c1c(=O)[nH]c(=O)n2C	2	8
COC(=O)C1=C(C)NC(=S)NC1c1ccccc1F (stereo not drawn)	1	-2
Cc1ccccc1-c1ccc(=O)n(CC(N)=O)n1	14	9
c1ccc(N2CCN(c3ccccc3)C2c2cccnc2)cc1	-4	-6
Cc1ccc(-c2c(F)cccc2OC(C)C)nn1	5	4
Cc1ccccc1OCC(O)C(=O)N1CCc2c(nc[nH]c2=O)C1 (stereo not drawn)	0	-3
COc1ccccc1N(CCC(N)=O)C(=O)/C=C/c1cccc(F)c1	1	1
Cc1cccnc1CN1CCN(Cc2cccc(OC3CCCC3)c2)CC1	-2	-4
NCCCCC(=O)O	4	-8
Cc1c(-c2ccc(NC(=O)C(C)C)cc2)nc2ccccn12	-1	-1
C=CCN(CC1CC(c2ccc(Cl)cc2)=NO1)C(=O)C1CCC1 (stereo not drawn)	-23	-16
O=C(CNC1(c2ccccc2)CC1)NCC(F)(F)F	-1	-2
NC(=O)c1cccc(CC2CCN(C(=O)NCCc3ccccc3F)C2)c1 (stereo not drawn)	-7	-8
O=C(CSc1nnc(-c2ccccc2Cl)n1-c1ccccc1Cl)NCC1CCCO1 (stereo not drawn)	2	4
CN(Cc1nc(-c2ccccc2)no1)C1CCOCC1	-3	0
CCC(C(=O)N(C)Cc1ccc(C(=O)OC)cc1)c1c(C)noc1C (stereo not drawn)	9	8
C#CCn1c(=NC(=O)C2=COCCO2)sc2ccccc21	4	1
COCC(=O)N1CCN(C2c3ccccc3CCc3ccccc32)CC1	2	-1
O=C(NCCCCCCNC(=O)ON=C1CCCCC1)ON=C1CCCCC1	-21	-27
CC(NC(=O)CN1C(=O)c2cc(Cl)c(Cl)cc2C1=O)C1CC1 (stereo not drawn)	-4	-4
CN(C)c1ccc(/C=C2/C(=O)NC(=O)N(Cc3ccccc3)C2=O)cc1	5	5

By substructure: those above containing a Cl atom.
SMILES	NPYLR7 ag	NPYLR7 ag max-min
COc1ccccc1CNC(=O)c1nnn(Cc2ccc(Cl)cc2)c1N	-1	6
O=C(CSc1nc(Cl)cc(N2CCN(C(=O)C3CC3)CC2)n1)NCCC(c1ccccc1)c1ccccc1	7	16
COC(=O)CCN(C(=O)c1ccc(Cl)c([N+](=O)[O-])c1)c1ccccn1	-3	-5
COc1cc(-c2nn(-c3ccccc3)c(OC(C)=O)c2-c2ccc(NC(=O)c3ccc(Cl)cc3)cc2)cc(OC)c1OC	-1	13
COc1cc(Cl)c(NC(=O)Cn2cnc3scc(-c4cccs4)c3c2=O)cc1OC	5	2
O=C(c1ccc(Cl)nc1)N1CCC(c2cn(Cc3cccc(F)c3)c3ccccc23)CC1	2	4
O=C(CSc1nc2[nH]ncc2c(=O)[nH]1)Nc1ccc(Cl)cc1	-15	-8
CC(=O)N[C@@H]1C[C@H](CC(C)C)O[C@H](c2c(C)nc3ccc(Cl)cn23)C1	0	-5
O=C(Cc1ccc(Cl)cc1)NNC(=O)c1cccn(Cc2ccc(F)cc2)c1=O	-12	-19
CC(C)C(NS(=O)(=O)c1ccccc1)C(=O)N1CCN(c2cccc(Cl)c2)CC1 (stereo not drawn)	-17	-16
Cn1c(=O)n(Cc2ccccc2Cl)c(=O)c2c1nc1n2CCN1c1ccccc1	3	0
C=CCN(CC1CC(c2ccc(Cl)cc2)=NO1)C(=O)C1CCC1 (stereo not drawn)	-23	-16
O=C(CSc1nnc(-c2ccccc2Cl)n1-c1ccccc1Cl)NCC1CCCO1 (stereo not drawn)	2	4
CC(NC(=O)CN1C(=O)c2cc(Cl)c(Cl)cc2C1=O)C1CC1 (stereo not drawn)	-4	-4
